# From PubChem BioAssay
# gsp ag: agonists of gsp mutant (McCune-Albright syndrome). actives 0.13% (n = 340,000). AID 624287. Potency, µM (series often up to 76.9 µM), without a hit: at the top dose activation (cAMP increase), hits mostly activators. gsp mutant cells, cAMP HTRF, 30 min; control for the full effect not named in the record; active = well fitted activation curve with a large enough effect; inconclusive = small, poorly fitted or top-dose-only effect, or another doubt; inactive = no such curve, though single readings can be large or run the other way; cell line not stated here;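 note: phosphodiesterase inhibitor Ro 20-1724 added with compounds to block cAMP breakdown; potency is the fitted concentration of half-maximal effect; nearly all actives have a fitted effect of over 60% in size; about a fifth of the inactives were tested at one dose only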
#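 Cells stably selected in G418 were plated at 2000/well, grown 16-24 hr, then given compounds in DMSO with the PDE inhibitor […] (300 uM solution added) for 30 min at 37C; cAMP was read by HTRF.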
# ClpP mod: qHTS Assay for Activators of ClpP; purified B. subtilis ClpP, FRET peptide cleavage, 20 min; actives 1.9% (n = 340,000); ATP-dependent Clp protease proteolytic subunit (Bacillus subtilis (strain 168)), P80244; Potency, µM (highest dose often 57.5 µM), inactives show at the highest dose activity change, negative = active; active = well fitted falling curve with a large enough effect; inconclusive = small, poorly fitted or top-dose-only effect; inactive = no such curve, though single readings can be large or run the other way; note: potency is the fitted concentration of half-maximal effect; the source files actives as falling curves though it sought activators and does not explain the sign; nearly all actives have a fitted effect of over 65% in size; many hits overshoot -100%
# Target sequence (P80244 whole entry, looked up): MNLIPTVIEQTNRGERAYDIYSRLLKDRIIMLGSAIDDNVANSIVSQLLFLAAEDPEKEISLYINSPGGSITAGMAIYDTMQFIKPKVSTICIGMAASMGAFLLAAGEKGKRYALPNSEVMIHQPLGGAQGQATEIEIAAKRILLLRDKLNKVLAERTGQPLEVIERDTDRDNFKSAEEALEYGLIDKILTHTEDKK
#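 Purified B. subtilis ClpP, 10 microg/mL final in Tris/HCl pH8 with KCl, BSA, glycerol and Tween-20, cleaved an Abz/nitrotyrosine-quenched decapeptide. Fluorescence (ex 320, em 430) was read at 0 and 20 min at room temperature. Delta was normalized to 5.8 microM ADEP and DMSO/no-enzyme controls.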
# gsp antagonist: antagonizes gsp, the McCune-Albright syndrome mutation; gsp-mutant cells, cAMP HTRF, 30 min; control for the full effect not named in the record; Potency, µM (series often up to 76.9 µM), for inactives: at the top dose activity change, negative = inhibition, most hits filed as inhibitors; actives 0.4% (n = 340,000); AID 624288; active = falling curve of any shape with a large fitted effect; inconclusive = falling curve, mostly with a smaller effect; inactive = flat or rising curve; cell line not stated here;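 note: intracellular cAMP measured with PDE inhibitor Ro 20-1724 present during compound exposure; potency is the fitted concentration of half-maximal effect; % is set by controls: 0 for no effect and ±100 for the full control effect; nearly all actives have a fitted effect of over 65% in size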
#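 G418-selected cells were plated in DMEM/10% FBS for 16-24 h at 37C, then treated with compounds plus the PDE inhibitor […] (300 uM solution added) for 30 min at 37C. Intracellular cAMP was measured by HTRF after 30 min lysis at room temperature.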
# TRPML1 agonist: human mucolipin-1 channel agonism; TRPML1-expressing cells, Ca2+ dye fluorescence, FDSS; host cell line not named in the record; reference of the full effect not given here; activation, % (concentration not given with the values); actives 0.12% (n = 410,000); AID 624414; in the data active = activation above about 50%; inconclusive = about 30% to 50%; inactive = below about 30%; note: 0% is about no effect; the text of the record puts the active cut at 80%
# Target sequence (Q9GZU1 whole entry, looked up): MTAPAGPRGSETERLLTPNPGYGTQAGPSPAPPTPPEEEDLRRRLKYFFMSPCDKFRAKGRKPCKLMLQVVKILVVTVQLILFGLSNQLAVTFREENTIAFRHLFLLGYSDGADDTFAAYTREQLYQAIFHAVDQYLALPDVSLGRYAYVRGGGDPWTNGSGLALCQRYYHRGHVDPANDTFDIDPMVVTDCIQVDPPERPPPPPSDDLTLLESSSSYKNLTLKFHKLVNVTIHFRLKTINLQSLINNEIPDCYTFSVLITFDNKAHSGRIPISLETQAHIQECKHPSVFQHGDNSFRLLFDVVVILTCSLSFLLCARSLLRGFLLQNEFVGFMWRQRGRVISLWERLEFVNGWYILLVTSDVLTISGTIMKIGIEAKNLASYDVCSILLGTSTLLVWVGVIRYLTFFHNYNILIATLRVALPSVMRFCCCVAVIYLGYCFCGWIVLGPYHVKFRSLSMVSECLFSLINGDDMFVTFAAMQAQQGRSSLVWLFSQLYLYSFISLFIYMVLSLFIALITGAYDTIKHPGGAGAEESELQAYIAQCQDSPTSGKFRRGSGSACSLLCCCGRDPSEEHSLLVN
#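 Cells: TRPML1-DL, 1X Tet inducer, ~16 h at 37 degrees C/5% CO2. Dye: ABD Ca8 no-wash + quencher, 45-90 min RT. Read: 10 s baseline, compound add, 110 s agonist phase; 54-4 EC80 (4uM final), 110 s antagonist phase.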
# Menin-MLL FL inh: displaces fluorescein MLL peptide from human menin; AID 1766; FP activity change, % at 61.4 µM; 290,000 tested, under 10 active; Fluorescence polarization, fluorescein-MLL peptide displacement from menin; inconclusive = falling polarisation curve, or a change in total fluorescence; inactive = total fluorescence flat and polarisation flat or rising; no compound was filed as active; the % refers to the polarisation; negative = inhibition;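 note: % of control where 0% means no effect; inhibitors lower the polarisation; unlabelled MLL peptide was the positive control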
# TRPML1 inh: human mucolipin-1 channel inhibition; Q9GZU1; TRPML1-inducible cells, Ca2+ dye fluorescence, FDSS; hits give low values; inhibition of EC80 agonist-evoked calcium signal; activity change, negative = inhibition, % (no concentration beside the values); actives 0.02% (n = 390,000); AID 624415; in the data active means activity change below about -50%; inconclusive means about -30% to -50%; inactive means above about -30%;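 note: stimulus is agonist 54-4 at its EC80 concentration; % is set by controls: 0 for no effect and ±100 for the full control effect; compound concentration not given in the record; the text of the record puts the active cut at -80%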
#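 Calcium fluorescence in TRPML1-DL cells induced overnight with Tet: a 110 s read after compound pin addition, then a 110 s antagonist read after challenge with 54-4 at 4 uM final (EC80).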
# Starred values were filed as active, the others as inactive; ? = inconclusive; · = not tested or not shown; [ ] = dose if it differs, or a comment.
SMILES,gsp ag,ClpP mod,gsp antagonist,TRPML1 agonist,Menin-MLL FL inh,TRPML1 inh
Cc1ccc(C(C)C)c(OCC(=O)Nc2ccccc2N2CCN(C)CC2)c1,-1%,-2.9%,-4%[15.4 µM],1.0,7.1,13
Cc1ccc(S(=O)(=O)N2[C@@H](c3ccc(Cl)cc3)C(C(=O)O)=C[C@H]2C(C)(C)C)cc1,·,-0.3%,0%,-1.0,·,-7
COc1ccc(S(=O)(=O)N2CCCCCC2)cc1NC(=O)Cc1ccccc1F,6%,0.3%,-11%,-0.4,2.6,-11
S=c1[nH]nc(CSCc2ccccc2Cl)n1-c1ccccc1,?,-2.5%,5%,0.6,1.1,-9
CCSc1nc(CC)c2c(c1C#N)CCCC2,-38%[inhibitor],-2.1%,-11%,0.6,3.2,11
Clc1ccccc1Nc1nc2ccccc2o1,?,-3.1%,4%,1.3,·,-8
COc1ccccc1CNC(=O)COC(=O)c1ccc2c(=O)n3c(nc2c1)CCCCC3,2%,-7.2%,7%,2.7,·,-8
O=C(NC1CCCCC1)C12CC3CC(C1)CC(n1cncn1)(C3)C2,-1%,1.2%,-2%,0.8,-6.5,-6
Cc1ccc(CNC(=O)CN2C(=O)CSc3ccc(S(=O)(=O)N4CCC(C)CC4)cc32)cc1,-6%,0.1%,-23%,3.7,2.8,6
Cc1nn(-c2ccccc2)c(N2CCCC2)c1C=O,8%,-2.2%,3%,-0.1,-2.1,8
COc1ccccc1C(NC(C)=O)c1c(O)ccc2ccc(O)cc12 (configuration not stated),4%[15.4 µM],·,9%,0.2,·,6
CCOC(=O)CCn1cnc2ccc([N+](=O)[O-])cc2c1=O,?,0.1%,4%,0.5,-2.3,17
CC(NC(=O)CNC(=O)C(Cc1ccccc1)NC(=O)OCc1ccccc1)C(N)=O (configuration not stated),40%,-3.1%,9%,0.9,0.6,-7
CC(C)CCNC(=O)CC1Nc2c3ccccc3nc(=S)n2C1=O (configuration not stated),?,1.9%,0%,-0.1,-1.0,-8
CC(C)N1CCN(C(=O)c2ccc(NC(=O)c3ccc(Br)o3)cc2)CC1,4%,-0.4%,-3%,0.4,·,-14
CCCCSc1nc(NCc2ccco2)c2c3c(sc2n1)COC(C)(C)C3,-34%[inhibitor],-18%,-14%,0.9,6.7,13
Cc1cc(C)cc(NC(=O)c2ccc(N3C(=O)C4CCCCC4C3=O)cc2)c1 (configuration not stated),-33%,0.5%,-16%,2.2,-2.9,9
CCCCN(C)CCOc1ccccc1OCC,24%,-3.8%,-3%,-1.2,-1.4,14
Cn1c(=O)c2c(nc(CN3CCc4ccccc4C3)n2Cc2ccc(Cl)cc2)n(C)c1=O,0%,-3.9%,7%,0.6,2.4,4
Cc1ccc(S(=O)(=O)N2[C@@H](c3ccc(Cl)cc3)C(C(=O)O)=CC[C@H]2c2ccc3c(c2)OCO3)cc1,-4%,0.9%,-2%,-0.2,·,-23
CC1CCN(S(=O)(=O)c2ccc(C(=O)N3CCCC3C(=O)O)cc2)CC1 (configuration not stated),-39%[inhibitor],-2.8%,5%,0.0,·,8
COC(=O)c1nn(-c2ccc(-c3ccccc3)cc2)cc1O,0%,?,-1%,-1.2,-0.8,-7
CCc1ccc(NC(=O)CSc2nnc(CNC(=O)c3ccc(OC)cc3)o2)cc1,-8%,1.6%,5%,-1.2,·,-1
O=C(N/N=C/c1ccc(-c2cccc([N+](=O)[O-])c2)o1)c1cccs1,-3%[15.4 µM],·,-27%,-1.1,-1.7,20
CCc1ccc(NC(=O)Cn2c(=O)oc3cc(S(=O)(=O)N4CCOCC4)ccc32)cc1,-19%,1.5%,-7%,-0.4,2.2,4
Cc1cc(=O)n(Cc2ccccc2)c2c1c(C)nn2C,·,-8.9%,·,3.8,·,30
CCOC(=O)c1oc2ccc(S(=O)(=O)n3nc(-c4cc(OCC)c(OCC)c(OCC)c4)cc3N)cc2c1C,·,-3.0%,·,0.5,·,2
CCN1CCN(CC(O)COC(c2ccccc2)c2ccccc2C)CC1 (configuration not stated),0%,0.2%,13%,1.2,-0.1,?
COc1ccc(-c2nnn(CC(=O)N(CC(=O)NC3CCCC3)c3ccccc3)n2)cc1OC,2%[15.4 µM],·,-3%,0.0,-1.6,21
O=C1N/C(=C/c2ccc(N3CCOCC3)o2)C(=O)N1c1ccccc1,2%[15.4 µM],-1.1%,-7%,0.2,?,5
O=C(COC(=O)COc1ccccc1)Nc1ccc(S(=O)(=O)N2CCOCC2)cc1,-66%[inhibitor],·,-1%,0.2,-2.8,-12
COCC(=O)NC1CC(C)(C)Cc2c1cnn2-c1ccc(F)cc1 (configuration not stated),-19%,-1.4%,5%,-0.5,2.2,-7
O=C1OCC2=C1C(c1ccc(F)cc1)c1cc3c(cc1N2)OCO3 (configuration not stated),-16%[15.4 µM],·,4%,0.4,-1.3,13
COC(=O)c1cc(C#N)c(N(C)Cc2ccccc2)nc1C,1%,?,17%,2.1,3.2,4
CC(C)NC(=O)NC(=O)CSc1nnc(C(F)(F)F)n1C,5%[15.4 µM],·,13%,-0.6,2.3,-6
O=C(CC1CC1)Nc1ccc2c(c1)[C@@H]1C[C@H](CC(=O)NC3CCCC3)O[C@@H](CO)[C@@H]1O2,12%,-1.8%,·,0.0,·,38
CC(=O)c1c(C)[nH]c(C(=O)Nc2ccc(F)cc2F)c1C,-9%[15.4 µM],·,-17%,0.2,9.2,17
COc1cc(OC)cc(C(=O)NCC(=O)OCC(=O)Nc2ccc3c(c2)OCO3)c1,-4%[15.4 µM],1.5%,8%,-0.5,-0.5,10
O=C(COc1cccc(Oc2ccccc2)c1)Nc1ccc(SC(F)F)cc1,12%,-5.6%,-11%,0.5,2.6,-1
Cc1ccc([N+](=O)[O-])cc1-c1ccc2cccc(C)c2n1,-2%,-0.7%,-3%,4.2,2.1,10
O=C1NN(c2ccccc2)C(=O)/C1=C/c1ccc(-c2cccc(C(=O)O)c2)o1,-5%,·,-11%,0.6,-3.8,-17
Cc1cc(C)nc(N2CCCC(C(=O)NCc3cccs3)C2)n1 (configuration not stated),-7%,?,3%,2.5,1.2,26
C=CCc1cccc2cc(C(=O)NCCOC)c(=O)oc12,9%[15.4 µM],·,-7%,0.5,2.0,-3
CCn1ncc(Cl)c1C(=O)NC(C)c1ccccc1 (configuration not stated),6%,-1.8%,-5%,-0.1,0.6,-12
O=C(CSc1ncccn1)n1c2c(c3ccccc31)CCCC2,-22%,-2.2%,5%,5.1,-0.5,11
CC(Oc1ccccc1)C(=O)N1CCN=C1SCc1ccccc1 (configuration not stated),-1%[15.4 µM],-0.1%,-24%,-0.8,-2.0,-22
CCc1cc(C(=O)c2ccc(OC)cc2)c(NC(=O)CN2CCN(C)CC2)s1,0%,·,7%,0.0,-5.1,27
Cc1cccc(-c2cc(NC(=O)C(C)(C)C)n(-c3ccccc3)n2)c1,·,-2.0%,·,0.0,·,-5
COc1cccc(CNC(=O)c2cccnc2Sc2ccc(C)cc2C)c1,6%,-2.4%,-12%,1.1,·,-22
CS(=O)(=O)c1ccccc1-c1nnc(NC(=O)c2ccc3ncsc3c2)o1,-12%[15.4 µM],·,-2%,-0.7,·,5
Cc1cccc(NC(=O)c2cccnc2)c1C,-2%[15.4 µM],-4.8%,-11%,-0.9,-0.4,1
COc1cccc(CN(C)C[C@H]2OCc3cnnn3CCCC(=O)N([C@@H](C)CO)C[C@@H]2C)c1,?,-1.9%,·,0.8,·,-7
COc1ccccc1CNC(=O)CSc1nc(-c2ccc(OC)c(OC)c2)cc(C(F)(F)F)n1,·,28µM*,·,1.3,·,7
COc1cccc(NC(=O)N2CCC(CN3CCOCC3)CC2)c1,·,-1.0%,·,-0.1,·,-6
CN(C)c1ccc(C(=O)Nc2nnc(-c3ccc(Cl)cc3)o2)cc1,21%,0.7%,-3%,-0.2,1.2,9
Cc1ccc(S(=O)(=O)Cn2nnnc2C(c2ccccc2)N2CCN(c3ncccn3)CC2)cc1 (configuration not stated),1%,-13%,0%,-0.5,3.2,4
O=C(Nc1cccc(C(=O)O)c1)/C(=C\c1ccc(F)cc1)NC(=O)c1ccco1,26%[15.4 µM],·,-33%,-0.2,·,-5
CN(CCc1cn[nH]c1)Cc1nc(Cc2ccccc2F)no1,-19%,-0.9%,3%,0.1,5.0,3
Nc1c(S(=O)(=O)c2cccs2)c2nc3ccccc3nc2n1Cc1ccccc1,4%,35µM*,-28%,1.6,2.6,10
CCN(CC)C(=O)Cn1cc(C(=O)C(=O)NCc2ccccn2)c2ccccc21,-2%,-1.0%,-3%,-0.9,1.2,-8
# (listing goes on)
SMILES,gsp ag,ClpP mod,gsp antagonist,TRPML1 agonist,Menin-MLL FL inh,TRPML1 inh
CCc1ccc(N(CC)C(=O)Cn2c(=O)oc3ccccc32)cc1,·,-0.1%,·,-0.6,·,17
Cc1cc(O)c(-c2ccnc3cc(-c4ccccc4)nn23)cc1Cl,·,?,·,3.6,·,-7
Cc1ccc(NC(=O)Cn2c(=O)n(Cc3nc(-c4ccccc4)no3)c(=O)c3cc4c(cc32)OCO4)c(C)c1,·,-18%,·,1.2,·,1
CC1CCN(c2ccc3nnc(CCC(=O)NCC(C)c4ccccc4)n3n2)CC1 (configuration not stated),-5%,0.5%,-2%,1.6,-1.8,-8
O=S(=O)(NCCc1cn2ccccc2n1)c1ccc2c(c1)CCCC2,-3%,-24%,-1%,-0.1,3.1,-13
COc1ccc(OC)c(CCNC(=O)C2CCN(c3nnc(-n4cccc4)s3)CC2)c1,-20%,-4.3%,-23%,0.3,2.3,-3
Cc1ccccc1NS(=O)(=O)c1ccc(C(=O)N2CC(C)OC(C)C2)cc1 (configuration not stated),-10%,-3.6%,3%,1.1,·,1
O=C(Nc1ccc2c(c1)oc1ccccc12)c1ccncc1,9%,-1.1%,11%,0.3,-2.8,-1
Cc1nc(N)c(C#N)c(-c2cccnc2)c1-c1ccccc1,?,-22%,13%,1.0,1.4,-15
COCCCNC(=O)C[C@H]1C[C@H](C(=O)N2CCCCC2)[C@@]2(CCc3ccccc3)c3[nH]c4cc(-c5ccco5)ccc4c3CCN2C1=O,·,4.4%,-7%,-0.2,·,16
COc1ccc(Cl)cc1NC(=O)Cn1ncc2c3ccccc3n(Cc3ccccc3)c2c1=O,·,-11%,·,3.1,·,-27
Cc1ccc(C(=O)OCC(=O)c2c[nH]c3ccccc23)cc1S(=O)(=O)N1CCCCC1,-6%[15.4 µM],-5.2%,-1%,0.0,4.2,13
O=C1CCN1C1(C(=O)NC2CCCCC2)CCCC1,9%,1.7%,-2%,0.9,5.6,3
Nc1cccc2c1C(=O)N(C(=O)c1ccco1)C2=O,24%,·,12%,-0.4,·,-16
